Screens as filed in PubChem.
Tg IFNy HTS: inhibitors of Toxoplasma gondii growth with IFN-gamma; Toxoplasma gondii growth in IFN-gamma-treated host cells; stronger effect = lower value; reference of the scale not given here; activity change, negative = inhibition, %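 (about 20 µM by stock and volumes)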; hit rate 3.8% among 69,000; AID 1259416;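 active = below -70%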;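 also: host cells are HeLa cells infected with Toxoplasma gondii; parasite growth read as luciferase light; one replicate is shown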
The depositor's hits bear a star; & = joins results of further samples. The list is partial; count on the stated rates, not on these rows.

How did C=CCn1c(=O)c(C(=O)Nc2ccc(Cl)cc2)c(O)c2ccccc21 do in these assays?
Tg IFNy HTS: 50

What do the screens show for `c1ccc(-c2noc3c2CN(c2cc(N4CCOCC4)ncn2)CC3)cc1`?
Tg IFNy HTS: -43

What do the screens show for `CCN1[C@@H]2CCN(C(=O)c3cc(C)[nH]n3)CC[C@@H]2Oc2ccccc2S1(=O)=O`?
Tg IFNy HTS: 8

What do the screens show for `CC(C)Nc1nc2c(cc1C(=O)N(C)C)CCN(Cc1cccnc1)CC2`?
Tg IFNy HTS: 2

How did O=C(NCC[C@@H]1CC[C@@H](NC(=O)C2CCOCC2)[C@@H](CO)O1)c1cc(Cl)cc(Cl)c1 do in these assays?
Tg IFNy HTS: -22

What do the screens show for `Cc1cccc(CN2CCC3(CCN(C(=O)N4CCCC4)C3)C2=O)c1` (stereo not drawn)?
Tg IFNy HTS: -1

How did CS(=O)(=O)c1cc(Cl)cnc1C1CCN(C(=O)Cc2cn3ccsc3n2)CC1 do in these assays?
Tg IFNy HTS: 42

How did CN(C)C(=O)[C@@]12CCCN(C(=O)Nc3ccccc3)C[C@@H]1CN(c1ccccn1)C2 do in these assays?
Tg IFNy HTS: -5

How did CCNC(=O)c1ccc(-c2nc(CN3CCN(c4ccccc4)CC3)c(C)o2)cc1 do in these assays?
Tg IFNy HTS: 45

How did CCCc1nc(CN(C)C(=O)c2ccc3sc(N)nc3c2)no1 do in these assays?
Tg IFNy HTS: 12

What do the screens show for `COc1cc(-c2ccc(-n3cccn3)cc2)cc(OC)c1OC`?
Tg IFNy HTS: 23

How did CCc1nc(C)sc1CNC(=O)CCc1nc(-c2ccccc2C)no1 do in these assays?
Tg IFNy HTS: -19

What do the screens show for `Cc1nc2c(n1C)CN(C(=O)Cc1c(F)cccc1Cl)CC2`?
Tg IFNy HTS: -42

How did CC(=O)NCCc1csc(-c2ccc(F)cc2)n1 do in these assays?
Tg IFNy HTS: 39

What do the screens show for `Cc1cc(C)n(-c2nc(Nc3ccccc3C)nc(-n3nc(C)cc3C)n2)n1`?
Tg IFNy HTS: -58

Quoted at random: 2 entries already listed.
How did CCNC(=O)c1ccc(-c2nc(CN3CCN(c4ccccc4)CC3)c(C)o2)cc1 do in these assays?
Tg IFNy HTS: 45

How did C=CCn1c(=O)c(C(=O)Nc2ccc(Cl)cc2)c(O)c2ccccc21 do in these assays?
Tg IFNy HTS: 50

Quoted from the results shown for reference:
How did C=CCn1c(=O)c(C(=O)Nc2ccc(Cl)cc2)c(O)c2ccccc21 do in these assays?
Tg IFNy HTS: 50

What do the screens show for `c1ccc(-c2noc3c2CN(c2cc(N4CCOCC4)ncn2)CC3)cc1`?
Tg IFNy HTS: -43

The main list resumes, starting 2 compounds before the break.
How did CC(=O)NCCc1csc(-c2ccc(F)cc2)n1 do in these assays?
Tg IFNy HTS: 39

What do the screens show for `Cc1cc(C)n(-c2nc(Nc3ccccc3C)nc(-n3nc(C)cc3C)n2)n1`?
Tg IFNy HTS: -58

How did CS(=O)(=O)N1CC2(C1)[C@@H](c1ccccc1)[C@@H](CO)N2Cc1ccccc1 do in these assays?
Tg IFNy HTS: 60

How did COc1ccc(CNC(=O)CN2C(=O)CCc3cc(S(=O)(=O)N4CCCCC4)ccc32)cc1 do in these assays?
Tg IFNy HTS: -18

What do the screens show for `Cc1ccc(NC(=O)c2nnn(Cc3nc(-c4ccc(OC(C)C)cc4)oc3C)c2C)cc1Cl`?
Tg IFNy HTS: 85

How did COc1ccc(NC(=O)N(C)C[C@@H]2OCCCC[C@H](C)Oc3ccc(NC(=O)c4ccncc4)cc3C(=O)N([C@@H](C)CO)C[C@@H]2C)cc1 do in these assays?
Tg IFNy HTS: 105

What do the screens show for `CCOC(=O)c1c(NC(=O)CSc2nc(C)cc(C)n2)sc(C(C)=O)c1C`?
Tg IFNy HTS: -24

How did Cn1c2ccccc2c2c1cc(C(=O)NCCO)n2-c1ncccn1 do in these assays?
Tg IFNy HTS: -45

Results for CCOc1nc2c(c(C)nn2-c2cccc(C)c2)c(C)c1CCC(=O)NCCc1c[nH]c2ccccc12 ?
Tg IFNy HTS: -79*

What do the screens show for `COCC1(C(=O)N2CCN(CCc3ccncc3)CC2)CCC1`?
Tg IFNy HTS: 17

Results for CCCCCC1CCC(c2ccc(C#N)c(Cl)n2)CC1 (stereo not drawn) ?
Tg IFNy HTS: -28

Results for Cc1ccc(NCn2c(=S)oc3ccc(Cl)cc32)c(C)c1 ?
Tg IFNy HTS: 45

Results for c1ccc(Cc2nc3ccccc3[nH]2)cc1 ?
Tg IFNy HTS: -16

What do the screens show for `CO[C@H]1CN(C)C(=O)c2ccc(NC(=O)c3cccc(F)c3)cc2OC[C@H](C)NC[C@@H]1C`?
Tg IFNy HTS: 168

What do the screens show for `O=C(Cn1c(=O)sc2ccccc21)Nc1cccc2ccccc12`?
Tg IFNy HTS: -3

What do the screens show for `COc1ccc(NC(=O)N2C[C@H](O)COC[C@@H]3O[C@@H](CC(=O)NCc4ccncn4)CC[C@H]32)cc1`?
Tg IFNy HTS: 36

What do the screens show for `O=C(c1ccncc1)N1C[C@H]2CN(CC3CC3)C(=O)[C@@H]2C1`?
Tg IFNy HTS: 25

Some of these compounds in order of count of non-hydrogen atoms, highest first.
What do the screens show for `Cc1ccc(NC(=O)c2nnn(Cc3nc(-c4ccc(OC(C)C)cc4)oc3C)c2C)cc1Cl`?
Tg IFNy HTS: 85

How did Cn1c2ccccc2c2c1cc(C(=O)NCCO)n2-c1ncccn1 do in these assays?
Tg IFNy HTS: -45

What do the screens show for `O=C(Cn1c(=O)sc2ccccc21)Nc1cccc2ccccc12`?
Tg IFNy HTS: -3

What do the screens show for `O=C(c1ccncc1)N1C[C@H]2CN(CC3CC3)C(=O)[C@@H]2C1`?
Tg IFNy HTS: 25

(listing goes on)
How did CCOc1ccc2oc(=O)cc(CN3CCN(Cc4nc(-c5cccc(Cl)c5)oc4C)CC3)c2c1 do in these assays?
Tg IFNy HTS: 11

What do the screens show for `Cc1cc(N2CCCC2)nc(C2CCN(S(=O)(=O)c3c(C)nn(C)c3Cl)CC2)n1`?
Tg IFNy HTS: -5

Results for c1ccc(-c2cc(-c3ccccc3)n3ncnc3n2)cc1 ?
Tg IFNy HTS: 19

How did Cc1cnn(Cc2nc(-c3ccc(NC(=O)c4ccccc4Cl)cc3)oc2C)c1 do in these assays?
Tg IFNy HTS: -84*

What do the screens show for `COc1cccc([C@@H]2CN(C(=O)c3csc4c3CCCC4)C[C@]23CCCCC(=O)N3)c1`?
Tg IFNy HTS: -14

How did Cn1c(=O)oc2cc(NS(=O)(=O)c3ccc4c(c3)CCC(=O)N4)ccc21 do in these assays?
Tg IFNy HTS: 112

How did Fc1cccc(CNCc2ccco2)c1 do in these assays?
Tg IFNy HTS: -48

How did CC1(CCC#N)N=C(SCCC#N)N(c2ccccc2)C1=O (stereo not drawn) do in these assays?
Tg IFNy HTS: -74*

How did COc1ccc(S(=O)(=O)CCNS(=O)(=O)c2sc(C)nc2C)cc1 do in these assays?
Tg IFNy HTS: 2

What do the screens show for `COc1ccc2[nH]c(C(=O)N3CCCC(N(C)C)CC3)cc2c1` (stereo not drawn)?
Tg IFNy HTS: 0

What do the screens show for `Cc1nc(CCN)cc(N2CCN(c3ccncc3C)CC2)n1`?
Tg IFNy HTS: -11

What do the screens show for `O[C@@H]1C[C@H]2CN(Cc3ccc(Br)s3)[C@H](Cc3ccccc3)CN2C1`?
Tg IFNy HTS: 33

How did Nc1cc(N2CCN(CCCc3ccccc3)CC2)nc(N)n1 do in these assays?
Tg IFNy HTS: -26

Results for O=C(O)CN1CCC(c2cc(Cc3ccccc3)[nH]n2)CC1 ?
Tg IFNy HTS: 0

Results for CN(C)C(=O)N[C@H]1CN(S(C)(=O)=O)C2CCCOC21 (stereo partly drawn) ?
Tg IFNy HTS: -7

What do the screens show for `O=C(c1ccc(Cl)c(Cl)c1)N1CCC(Cn2cccc2)CC1`?
Tg IFNy HTS: -11

Results for CN(Cc1cccc2ncccc12)Cc1nnc(CC2CCNCC2)n1C ?
Tg IFNy HTS: -7

How did COc1ccc(C)cc1N1CC(C(=O)Nc2cccc(-n3nnnc3C)c2)CC1=O (stereo not drawn) do in these assays?
Tg IFNy HTS: 6

What do the screens show for `CCNS(=O)(=O)c1ccc(-c2oc3cc(S(=O)(=O)NCC)ccc3c2Cl)cc1`?
Tg IFNy HTS: -78*

How did CC[C@@H](Cn1ncc2ccccc2c1=O)NC(=O)CC1c2ccccc2Oc2ccccc21 do in these assays?
Tg IFNy HTS: -29

Results for CNC(=O)C[C@H]1CC[C@H]2[C@@H](COc3ccc(NC(=O)c4ccccc4F)cc3C(=O)N2C)O1 ?
Tg IFNy HTS: 6

What do the screens show for `CN(C)CC(=O)N1CC2CN(C(=O)Nc3ccccc3)CC2C1` (stereo not drawn)?
Tg IFNy HTS: 70

Results for Cc1ccc(-c2nc(-c3noc4ccc(C(=O)Cc5ccccn5)cc34)co2)cc1 ?
Tg IFNy HTS: 45

Results for COc1ccc(S(=O)(=O)N(C)C[C@H]2Oc3ccc(NC(=O)Nc4ccc(C(F)(F)F)cc4)cc3C(=O)N([C@H](C)CO)C[C@@H]2C)cc1 ?
Tg IFNy HTS: -42

How did CCN(Cc1ccc2cccc(O)c2n1)CC1CCOCC1 do in these assays?
Tg IFNy HTS: 3

Results for COC[C@H]1CN(C)C[C@]12CCN(C(=O)c1cc3ccccc3s1)C2 ?
Tg IFNy HTS: -50

How did CCOc1ccc(S(=O)(=O)N2CCC3(CC2)c2cccn2-c2ccc(C)cc2N3CC)cc1 do in these assays?
Tg IFNy HTS: -92*

How did COc1ccc(-c2[nH]ncc2CN2CCC3(CC2)C(=O)N(C(C)C)C(=O)N3CCC(C)C)cc1 do in these assays?
Tg IFNy HTS: -6

Results for Cc1ccccc1-c1ccc(C2[C@@H]3CN(Cc4cncnc4)C[C@H]2N3)cc1 (stereo partly drawn) ?
Tg IFNy HTS: -51&-16

Results for Cc1cccc(CN2C[C@H]3CN(c4ncc(F)cn4)C[C@H]3C2=O)n1 ?
Tg IFNy HTS: -1

Results for CCN(CC)C(=O)[C@@H]1C[C@H](N)CN1C(=O)CCc1cc(Cl)no1 ?
Tg IFNy HTS: 2

How did CCc1ccc(/C=C2\Oc3cc(OC(=O)N4CCOCC4)ccc3C2=O)cc1 do in these assays?
Tg IFNy HTS: 4

What do the screens show for `O=c1c2c([nH]n1-c1ccccc1)CCSC2`?
Tg IFNy HTS: -22

How did CN1C[C@H]2[C@@H](c3ccccc31)[C@@H](CO)N2C(=O)c1cccnc1 do in these assays?
Tg IFNy HTS: -4

What do the screens show for `O=C(Sc1ccc(C(F)(F)F)cn1)c1cncc(C#Cc2ccccc2)c1`?
Tg IFNy HTS: -8

Results for CC(C)CN1C(=O)CC2C1CCN2S(=O)(=O)c1cn(C)cn1 (stereo not drawn) ?
Tg IFNy HTS: 1

How did Cc1ccccc1-c1ccccc1[C@@H]1[C@H](C#N)N(C(=O)c2ccc(F)cc2)[C@H]1CO do in these assays?
Tg IFNy HTS: -5

How did CCOc1ccccc1Nc1nc(-c2nnc(-c3ccc(OC)cc3)o2)nc2ccccc12 do in these assays?
Tg IFNy HTS: -12

What do the screens show for `O=C1NCN(c2ccccc2)C12CCN(CCCC(c1ccc(F)cc1)c1ccc(F)cc1)CC2`?
Tg IFNy HTS: -81*

Results for CN(Cc1cccc2cnccc12)C(=O)c1ccc(-n2cnnc2)cc1 ?
Tg IFNy HTS: -1

What do the screens show for `CC1=C(C(=O)N2CCC(C)CC2)C2(CCN(C(=O)c3ccco3)CC2)OC1=O`?
Tg IFNy HTS: -7

What do the screens show for `Cc1nc(C(F)(F)F)ccc1C(=O)Nc1nc2ccsc2c(=O)s1`?
Tg IFNy HTS: inactive

What do the screens show for `Cn1cc(-c2nnn3c2COC(CNCc2cccc(C#N)c2)C3)cn1` (stereo not drawn)?
Tg IFNy HTS: 5

What do the screens show for `COc1ccc(-c2nc(Cn3c(=O)c4cccnc4n(-c4ccccc4)c3=O)c(C)o2)cc1`?
Tg IFNy HTS: 2

What do the screens show for `CCOC(=O)[C@]12CCCN(S(=O)(=O)C3CC3)C[C@@H]1CN(CCN(C)C)C2`?
Tg IFNy HTS: 7

Results for O=C(O)CCS(=O)(=O)c1ncn[nH]1 ?
Tg IFNy HTS: -4

How did CCn1c(CNC(=O)COCc2nc3ccc(C)cc3[nH]2)nc2ccccc21 do in these assays?
Tg IFNy HTS: 38

Results for Cc1ccc(C(=O)N2CCC(N3CCOCC3)CC2C(=O)O)cn1 (stereo not drawn) ?
Tg IFNy HTS: 60

What do the screens show for `Cc1noc(C)c1CCC(=O)N1CCCC(n2nnc3cc(F)ccc32)C1` (stereo not drawn)?
Tg IFNy HTS: 17

Results for CCCCC(=O)Nc1nc(-c2cccs2)c(-c2cc(C)no2)s1 ?
Tg IFNy HTS: 3

Results for O=C1NCC2(CCC(C(=O)Nc3nccs3)CC2)Oc2ccc(Cl)cc21 (stereo not drawn) ?
Tg IFNy HTS: -44

How did Cc1ccc(NC(=O)N2CCN(Cc3nc(-c4cccc(Cl)c4)oc3C)CC2)cc1 do in these assays?
Tg IFNy HTS: 0

What do the screens show for `O=C(N1CCc2nc[nH]c2C1)C1(Oc2ccc(Cl)cc2)CCNCC1`?
Tg IFNy HTS: -22

What do the screens show for `Cc1noc([C@@H]2C[C@@H]3OCC[C@@H]3N(C(=O)c3sccc3C)C2)n1`?
Tg IFNy HTS: 7

Results for Cc1noc(C[C@H]2C[C@@H]3CN(C(=O)c4ccc(C)o4)C[C@H]3O2)n1 ?
Tg IFNy HTS: 2

Results for CC(C)CC(NC(=O)C(CC(C)C)NC(=O)OC(C)(C)C)C(N)=O (stereo not drawn) ?
Tg IFNy HTS: -18

What do the screens show for `CN(CCNC(=O)c1ccc(-n2cccc2)cc1)S(C)(=O)=O`?
Tg IFNy HTS: 1

What do the screens show for `Cc1cc(N2CCN(c3nccc(CCC(F)(F)F)n3)CC2)nc(N)n1`?
Tg IFNy HTS: -23

Results for Cc1ccc(C(=O)N2CCCC3(CC(Oc4cccnc4)CO3)C2)o1 (stereo not drawn) ?
Tg IFNy HTS: -3
